From PubChem BioAssay
D2 PAM – human D2 receptor positive allosteric modulation; DiscoveRx D2 beta-arrestin cells, luminescence, 90 min; 100% = 57 uM dopamine signal; potentiation, % (no concentration beside the values); P14416; 0.23% of 360,000 active; AID 624464; active = potentiation of 50% or more; inconclusive = 30% to 50%; inactive = 30% or less;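 further: compound concentration not given in the record; tested on top of an EC20 dose of dopamine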
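D2 cells co-treated with compound plus 50 nM dopamine (EC20) for 90 min at 37 deg C to detect potentiation. Beta-arrestin recruitment was read as enzyme-fragment luminescence after 1 h at ambient temperature. Full response was set by 57 uM dopamine.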
TRPML1 inh – human mucolipin-1 channel inhibition; Q9GZU1; TRPML1-inducible cells, Ca2+ dye fluorescence, FDSS; hits give low values; inhibition of EC80 agonist-evoked calcium signal; activity change, negative = inhibition, % (concentration not given with the values); 0.02% of 390,000 active; in the data active means activity change below about -50%; inconclusive means about -30% to -50%; inactive means above about -30%;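 further: stimulus is agonist 54-4 at its EC80 concentration; on the % scale 0 is the no-effect control and ±100 the full control effect; compound concentration not given in the record; the text of the record puts the active cut at -80%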
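Calcium fluorescence in TRPML1-DL cells induced overnight with Tet: a 110 s read after compound pin addition, then a 110 s antagonist read after challenge with 54-4 at 4 uM final (EC80).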
Six1-Eya2 blk – Six1/Eya2 interaction inhibition | Q15475+O00167 | AlphaScreen GST-Six1/His-Eya2 binding, biochemical; hits give low values; control for the full effect not named in the record | activity change, % (test concentration not listed) | 0.56% of 360,000 active | AID 651725; in the data active = activity change below about -65%; inconclusive = about -30% to -65%; inactive = above about -30%; further: on the % scale 0 is the no-effect control and ±100 the full control effect; compound concentration not given in the record
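AlphaScreen luminescence read after one hour at 37 °C in darkness. Pin-transferred compounds met GST-Six1 and His-Eya2 protein (5X stock 250 nM/500 nM) plus glutathione donor and Ni-chelate acceptor beads (5X, 50 ug/mL).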
TRPML1 agonist – human mucolipin-1 channel agonism; Q9GZU1; TRPML1-expressing cells, Ca2+ dye fluorescence, FDSS; host cell line not named in the record; reference of the full effect not given here; AID 624414; activation, % (test concentration not listed); 0.12% of 410,000 active; in the data active = activation above about 50%; inconclusive = about 30% to 50%; inactive = below about 30%; further: 0% is about no effect; the text of the record puts the active cut at 80%
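In this qHTS format, compounds were pin-transferred onto Ca8-dye-loaded TRPML1-DL cells induced with Tet overnight, and intracellular Ca2+ fluorescence was recorded kinetically for 110 s after a 10 s baseline. A subsequent 4uM final 54-4 (EC80) addition followed by a second 110 s read served as the antagonist phase.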
TRPV1 potentiator – potentiators of human vanilloid receptor 1 (TRPV1) | Q8NER1 | TRPV1-expressing cells, Fluo-8 calcium influx, capsaicin EC20 potentiation; host cell line not named in the record; control for the full effect not named in the record | potentiation, % at 8.33 µM | 0.02% of 320,000 active | AID 540277; active means potentiation above 80%; inconclusive means 30% to 80%; inactive means below 30%; further: 0% is about no effect
Target sequence (Q8NER1 whole entry, looked up): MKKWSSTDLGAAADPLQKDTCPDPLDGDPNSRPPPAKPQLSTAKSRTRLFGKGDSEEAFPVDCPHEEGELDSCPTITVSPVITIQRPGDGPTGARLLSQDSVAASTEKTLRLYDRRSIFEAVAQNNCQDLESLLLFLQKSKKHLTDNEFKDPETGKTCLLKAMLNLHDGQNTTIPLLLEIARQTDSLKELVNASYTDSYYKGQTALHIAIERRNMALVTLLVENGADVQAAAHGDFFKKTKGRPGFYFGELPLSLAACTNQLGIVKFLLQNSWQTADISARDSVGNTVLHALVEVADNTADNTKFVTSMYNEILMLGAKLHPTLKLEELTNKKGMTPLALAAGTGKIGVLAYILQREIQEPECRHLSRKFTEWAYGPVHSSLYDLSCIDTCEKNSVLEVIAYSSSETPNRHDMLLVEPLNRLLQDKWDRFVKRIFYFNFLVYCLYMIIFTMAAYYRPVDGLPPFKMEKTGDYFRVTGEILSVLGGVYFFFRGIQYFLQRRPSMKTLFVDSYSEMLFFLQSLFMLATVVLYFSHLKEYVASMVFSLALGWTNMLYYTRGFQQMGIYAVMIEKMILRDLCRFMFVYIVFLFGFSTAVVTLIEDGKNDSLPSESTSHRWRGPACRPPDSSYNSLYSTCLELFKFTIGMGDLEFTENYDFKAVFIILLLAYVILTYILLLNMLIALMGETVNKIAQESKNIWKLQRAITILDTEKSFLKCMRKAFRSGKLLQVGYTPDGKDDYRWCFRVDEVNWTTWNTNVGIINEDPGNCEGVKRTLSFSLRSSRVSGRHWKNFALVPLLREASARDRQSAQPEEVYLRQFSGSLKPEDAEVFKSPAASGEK
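Fluo-8 calcium influx in TRPV1-expressing cells, kinetic read (ex 480/em 520 nm). Compound added and read 3 min for agonist activity, followed by capsaicin at EC20 final and 2 min further read for enhancement.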
CtBP-E1A inh – CtBP/E1A binding inhibition | AlphaScreen GST-E1A/His-CtBP binding, 1536-well; hits give low values; control for the full effect not named in the record | 0.49% of 340,000 active | activity change, % (concentration not given with the values) | AID 651724; in the data active means activity change below about -65%; inconclusive means about -30% to -65%; inactive means above about -30%; further: on the % scale 0 is the no-effect control and ±100 the full control effect
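Homogeneous bead-based format: GST-tagged E1A captured on glutathione donor beads, His-tagged CtBP on nickel acceptor beads; compounds precede bead addition by 2 h at 37 °C.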
* marks the source's active call; other numbers are inactive results; ? = inconclusive; nt = no result given; & = joins results of further samples.

Every second line gives: TRPML1 agonist, CtBP-E1A inh, Six1-Eya2 blk, TRPV1 potentiator, TRPML1 inh, D2 PAM
O=c1cc(O)c(-c2ccccc2)c(Cl)[nH]1
→ -0.3, 5, 3, 21, 29, 4
COc1ccc(NC(=O)N2CCCC(C(=O)NCc3ccccc3F)C2)cc1 (stereo not drawn)
→ 0.2, -2, 8, -3, 0, -3
CS(=O)(=O)c1ccc(NS(=O)(=O)c2ccc3ccccc3c2)cc1
→ -0.6, 17, 15, 2, -19, 1
O=C(NC1CCCC1)C(c1cccnc1)N(C(=O)c1csnn1)c1ccc(F)cc1 (stereo not drawn)
→ 0.0, 6, 2, 24, -11, -1
COc1ccc(OC)c(NC(=O)COC(=O)CSc2ccc(Cl)cc2)c1
→ -0.9, 0, 14, -1, 0, -12
O=C(NCCC1=CCCCC1)C(=O)NCC1OCCCN1S(=O)(=O)c1ccccc1 (stereo not drawn)
→ -0.5, -2, -3, 24, -1, 10
COc1ccc2cc(CCNC(=O)C(C)C)c(=O)[nH]c2c1
→ -0.5, 3, 6, -27, 12, -7
CCCCNc1nc2ccccc2[nH]1
→ -0.7, 0, -5, -3, 26, -16
CN(C)c1ccc(C(=O)OCC(=O)NC2CCCCCC2)cc1
→ -0.6, -1, 5, -6, -9, -6
CCCC[C@H]1COCCS(=O)(=O)N1Cc1ccccc1F
→ 0.4&-1.0, 6, 0, -12, -13, -12
CCN1CCN(CC(O)COc2ccc(C(C)=O)cc2)CC1 (stereo not drawn)
→ -0.2, 3, 3, nt, 6, -3
Cc1c(NC(=O)C(C)OC(=O)c2cc(Cl)nc(Cl)c2)c(=O)n(-c2ccccc2)n1C (stereo not drawn)
→ 0.2, 0, 4, 0, 3, -15
CCOc1ccccc1NC(=O)CCS(=O)(=O)c1cccc2nsnc12
→ -0.4&-0.3, 4, 1, 22, 17&4, -7
O=C(CNC(=O)c1cccc(Br)c1)N/N=C/c1ccc[nH]1
→ 0.7, -8, -4, 9, 11, -13
Cc1ccc(CNC(=O)Cn2c(=O)c3sccc3n(Cc3ccc([N+](=O)[O-])cc3)c2=O)cc1
→ -0.8, 7, 2, -20, 1, -20
O=C(NC(=S)Nc1ccccc1N1CCCC1)c1cccs1
→ -0.3, nt, -30, -1, 9, -24
O=C(COC(=O)/C=C/C(=O)N1CCN(c2ccccc2)CC1)NCc1ccc(F)cc1
→ -1.2, -8, 7, ?, -5, -1
COc1ccc(CNc2nc(NCc3ccc(OC)cc3)n(S(C)(=O)=O)n2)cc1
→ 1.1, -2, -7, 3, -10, -6
COC(=O)c1ccc(NC(=O)Nc2ccccc2C)cc1
→ 2.0, 2, 1, 2, -13, -7
CC(NC(=O)C1CC1)c1ccc(-c2ccccc2)cc1 (stereo not drawn)
→ 0.0, nt, -4, -13, -4, -18
C=CCn1c(SCC(=O)NCCc2ccccc2)nnc1C1CC1
→ 0.5, 8, 4, 9, 35, -21
c1ccc(N=P(N2CCOCC2)(N2CCOCC2)N2CCOCC2)cc1
→ 0.3, 9, 5, -1, 0, -6
CCN(CC)c1ccc(/C=c2\sc3nc4ccccc4n3c2=O)c(O)c1
→ 11, 46, 41, 2, -3, 5
Cc1ccc(S(=O)(=O)NC(C(=O)N2CCOCCOCCOCC2)c2ccccc2)cc1 (stereo not drawn)
→ -0.7, nt, 4, 4, -6, -3
COc1ccc(-c2nc(CSCC(=O)NCc3ccc4c(c3)OCO4)c(C)o2)cc1OC
→ -0.2, -2, -9, -4, 10, -3
CS(=O)(=O)N1CCN(Cc2ccc(C(F)(F)F)cc2)CC1
→ 3.5, -1, 5, -2, 19, 5
Cc1ccccc1-c1nsc(SCC(=O)Nc2ccc3c(c2)OCO3)n1
→ 3.8, 2, -5, 1, 5, -8
CC(Oc1ccc2ccccc2c1)C(=O)N/N=C/c1cccnc1 (stereo not drawn)
→ -0.6, 4, 1, 8, 9, -4
COc1cc(C(=O)OCc2cccc(OC)c2OC)ccc1OCC(=O)N1CCOCC1
→ 0.6, 0, -1, -5, 3, -4
CN(C)C(=O)N1CCC(C(=O)NC2CCCCCCC2)CC1
→ 0.2, 7, 3, -8, 7, 10
Cc1ccc2c(c1)N(CCC(=O)NCc1cccs1)C(=O)C(C)O2 (stereo not drawn)
→ 0.8, -5, 2, -8, -6, -10
COc1cc(C(=O)NC(=S)Nc2ccc3[nH]c(=O)[nH]c3c2)cc(OC)c1OC
→ -1.1, 7, 31, 11, -13, 1
COc1ccc(C2NC(c3ccc(OC)c(OC)c3OC)C(C)C(=O)C2C)c(OC)c1OC (stereo not drawn)
→ 0.9, 3, 3, -2, -2, 10
O=C(O)CCCC(=O)Nc1ccc(Br)cc1
→ -0.9, -3, 0, -3, 2, -6
COC(=O)c1cn(NC(=O)c2ccc(F)cc2)c(=O)c2ccccc12
→ 0.8, -1, 1, -40, -7, -8
COc1cccc(-c2cc(NC=O)c3ncc(-c4ccc(C(C)=O)cc4)n3c2)c1
→ -0.5, -2, -2, nt, nt, 12
Cc1n[nH]c2ccc(Br)cc2c1=O
→ -0.7, 4, -4, nt, 15, -7
N#Cc1ccccc1NC(=O)CSc1ccc([N+](=O)[O-])cn1
→ -1.1, -8, 1, ?, 2, 9
O=C(c1ccccn1)N1N=C2/C(=C/c3ccc(F)cc3)CCCC2C1c1ccc(F)cc1 (stereo not drawn)
→ 1.4, -9, 6, 4, 8, -9
Cc1cc2nnc(SC(C)C#N)n2c2ccccc12 (stereo not drawn)
→ 4.2, -12, -11, 14, -8, -14
COc1cc(/C=N/NC(=O)C(N)=O)ccc1OCC(=O)N1C(C)CCCC1C (stereo not drawn)
→ -0.1, -4, -6, 6, 0, -35
CCOc1ccccc1NC(=O)c1cc(=O)[nH]c2ccc(S(=O)(=O)N3CCOCC3)cc12
→ 0.1, -3, -5, nt, -3, 0
COc1cc(C(O)c2nc(-c3ccc(F)cc3OC)cs2)ccc1F (stereo not drawn)
→ 0.1, -19, 9, nt, nt, -3
CC(C)C(c1nnnn1C(C)(C)C)N1CCC(Cc2ccccc2)CC1 (stereo not drawn)
→ 0.6, 0, 2, -4, -10, 4
O=C(O)c1ccc(N=Nc2c(O)[nH]c3ccc(Br)cc23)cc1
→ 0.4, nt, 0, 7, -1, -4
C=CCn1c(SCC(=O)O)nc2sc(CC)cc2c1=O
→ 1.1, -2, 7, -2, 4, -5
COCCN1C(=O)N(c2cccc(OC)c2)C(=O)C1CC(=O)Nc1cccc(F)c1 (stereo not drawn)
→ -0.1, 9, 8, -12, -2, -3
CSc1nc(Cc2ccc(Cl)cc2)nc2ccccc12
→ 2.5, 43, 31, 19, 14, -16
CCOC(=O)c1ccc(CSc2nnc(C)n2N)o1
→ -0.7, 0, 0, -2, 1, 13
COc1ccc(Oc2nc(SC)nc3ccccc23)cc1
→ 0.9, 10, 13, 6, -2, -11

Later entries:
Every second line gives: TRPML1 agonist, CtBP-E1A inh, Six1-Eya2 blk, TRPV1 potentiator, TRPML1 inh, D2 PAM
FC(F)Oc1ccccc1NC(=S)Nc1cccc(Cl)c1Cl
→ 0.7, 2, 0, -3, 16, 2
COC(=O)c1ccc(CNC(=O)COC(=O)C23CC4CC(CC(C4)C2)C3)cc1
→ -0.8, -9, -5, -17, -19, -19
O=C(Nn1c(-c2ccc(Cl)cc2)nc2ccccc2c1=O)c1cccnc1Cl
→ -0.7, nt, -15, 10, 18, -2
Cc1cccc(C)c1Nc1nnc(SC/C(O)=C(\C#N)c2nc3ccccc3[nH]2)s1
→ -0.6, 23, -2, 7, -3, 15
CCN(CC)Cc1c(NC(=O)c2ccccc2)sc(C)c1C
→ 0.2, -2, 6, -1, 21, -7
Cc1cccc(-c2nnc(SCC(=O)NC3CC3)n2C)c1
→ 1.5, 8, 3, -8, -4, -13
O=C1NC(=S)SC1=Cc1ccccc1Cl
→ 0.1, ?, -7, nt, 6, -8
CC(=O)Nc1ccc(N(C(=O)Cn2nnc3ccccc32)C(C(=O)NC2CCCC2)c2ccc(O)c(O)c2)cc1 (stereo not drawn)
→ 0.8, 3, 12, 8, 0, 1
O=C(Cc1ccc(F)cc1)Nc1ccc(Cl)cn1
→ -0.8, 10, 14, 5, -7, -7
CCOc1ccc2nc(NC(=O)NC3CCCCC3)sc2c1
→ 0.6, 3, -1, -10, -9, 12

In the list so far, three have a cyano group:
Every second line gives: TRPML1 agonist, CtBP-E1A inh, Six1-Eya2 blk, TRPV1 potentiator, TRPML1 inh, D2 PAM
N#Cc1ccccc1NC(=O)CSc1ccc([N+](=O)[O-])cn1
→ -1.1, -8, 1, ?, 2, 9
Cc1cc2nnc(SC(C)C#N)n2c2ccccc12 (stereo not drawn)
→ 4.2, -12, -11, 14, -8, -14
Cc1cccc(C)c1Nc1nnc(SC/C(O)=C(\C#N)c2nc3ccccc3[nH]2)s1
→ -0.6, 23, -2, 7, -3, 15

The results go on.
Every second line gives: TRPML1 agonist, CtBP-E1A inh, Six1-Eya2 blk, TRPV1 potentiator, TRPML1 inh, D2 PAM
CCOC(=O)N1CCN(S(=O)(=O)c2ccc3c(c2)oc(=O)n3C)CC1
→ -0.5, 1, 2, 2, 2, -7
COc1cccc(-c2cc(C(=O)Nc3c(C)nn(Cc4ccccc4C)c3C)no2)c1
→ 0.8, -2, -3, 5, 6, 9
CCOc1ccccc1NC(=O)C(C)N1C(=O)c2ccccc2S1(=O)=O (stereo not drawn)
→ 0.1, -1, 10, 14, 12, 0
Cc1nc(C)c(C(=O)C2=C(O)C(=O)N(CCCn3ccnc3)C2c2ccccc2)s1 (stereo not drawn)
→ -0.6, 1, 0, -16, 4, -14
O=C(NCC(=O)N1CCCC1)c1ccccc1F
→ -0.3, 4, 0, -15, 12, 1
Cc1ccccc1CSCc1nc2ccccc2[nH]1
→ 0.7, 2, -2, 25, -15, -16
CCOc1ccc(S(=O)(=O)N2CCCCC2)cc1NC(=O)C1=COCCO1
→ -0.1, -4, 1, -9, -17, 5
CCOc1ccc(-c2cnc3cccnn23)cc1
→ -1.0, 21, 22, nt, nt, 2
Cc1c(O)nc(SCC(=O)Nc2cccc(C(F)(F)F)c2)n(-c2ccccc2)c1=O
→ 0.9, 0, -1, 12, -6, -8
COc1ccccc1CNc1nc2cc(-c3ccsc3)sc2c(=O)n1C
→ -0.6, -11, 6, nt, nt, -13
CCOC(=O)C1CCCN(C2CC(=O)N(c3ccc(C)c(C)c3)C2=O)C1 (stereo not drawn)
→ 0.5, 7, 8, -1, 41, -3
O=C(OCC(=O)c1ccc(S(=O)(=O)N2CCCC2)cc1)C1=COCCO1
→ 0.5, 1, 1, -7, -11, -24
O=C(CNS(=O)(=O)c1ccc(Cl)cc1)N/N=C/c1ccco1
→ 0.6, 1, 0, 6, -6, -7
CCOC(=O)C1(Cc2ccccc2)CCN(Cc2cc(=O)c3ccccc3[nH]2)CC1
→ 3.5, nt, 0, 9, 7, 19
COc1ccc(-c2c(C)nn3c(N4CCC(C(=O)NCCN(C)C)CC4)cc(C)nc23)cc1OC
→ -0.8, -4, -1, 9, -2, -10
Oc1c(N=NC(=S)Nc2ccccc2F)c2ccccc2n1Cc1cccc(Cl)c1
→ 0.1, ?, ?, 7, 53, -33
Cc1onc(NC(=O)c2ccc([N+](=O)[O-])o2)c1Br
→ 0.0, -5, -1, -14, 18, 3
O=S(=O)(NC1CCCCC1)c1ccc(N2CCOCC2)nc1
→ 0.7, nt, -1, -7, 4, 1
O=C(Cn1nnc(-c2ccncc2)n1)Nc1ccc2c(c1)CCC2
→ 0.3, 6, 0, 26, 11, -5
